High-throughput results as filed in PubChem BioAssay.
SARS PLP yeast: blocks SARS-CoV papain-like protease in a yeast assay | S. cerevisiae expressing SARS-CoV PLpro, growth rescue; control for the full effect not named in the record | Potency, µM (series often up to 32.9 µM), for inactives: at the top dose activity, positive = growth rescue | actives 0.19% (n = 330,000); active means well fitted rising curve with a large enough effect; inconclusive means small, poorly fitted or top-dose-only effect; inactive means no such curve, though single readings can be large or run the other way; note: 0% is about no effect; nearly all actives have a fitted effect of over 55% in size; growth read by luminescence after 48 h
RE007 growth inh: less growth of the S. pombe RE007 Vpr strain | S. pombe RE007 Vpr strain, BacTiter-Glo ATP luminescence, 24 h; control for the full effect not named in the record | Potency, µM (series often up to 92.2 µM), without a hit: top-dose activity change, negative = less growth | actives 0.21% (n = 360,000); active = well fitted falling curve with a large enough effect; inconclusive = small, poorly fitted or top-dose-only effect; inactive = no such curve, though single readings can be large or run the other way;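 note: % is set by controls: 0 for no effect and ±100 for the full control effect; nearly all actives have a fitted effect of over 50% in size; the assay follows cell death caused by Vpr and the record does not say whether a fall means rescue or toxicity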
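Fission yeast strain RE007, carrying one chromosomally integrated HIV-1 vpr copy, was seeded at OD 0.01 in PMG+AL medium with 23 nL pinned compound. After 24 h at 30 °C and 99% humidity, viability was read by BacTiter-Glo luminescence.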
Cruzain Triton: inhibitors of Trypanosoma cruzi cruzain with detergent | purified cruzain, Z-FR-AMC fluorescence, 0.01% Triton | P25779 | Potency, µM, without a hit: max response, negative = inhibition, hits mostly inhibitors | AID 1478 | actives 0.43% (n = 200,000);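 note: plate controls were neutral wells for no effect and buffer without enzyme for full effect; nearly all actives have a fitted effect of over 40% in size; top concentration of the series not given in the record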
Target sequence (P25779 123-467 limits assumed): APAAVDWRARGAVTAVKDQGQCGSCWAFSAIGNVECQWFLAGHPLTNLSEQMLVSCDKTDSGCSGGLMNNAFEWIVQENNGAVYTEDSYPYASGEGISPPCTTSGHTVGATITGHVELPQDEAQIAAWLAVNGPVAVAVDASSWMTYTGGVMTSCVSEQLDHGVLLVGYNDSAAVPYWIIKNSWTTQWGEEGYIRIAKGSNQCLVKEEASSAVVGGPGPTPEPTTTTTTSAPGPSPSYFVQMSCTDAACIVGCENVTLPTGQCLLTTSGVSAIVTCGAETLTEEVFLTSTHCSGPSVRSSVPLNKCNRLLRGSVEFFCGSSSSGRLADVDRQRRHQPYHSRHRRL
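Purified cruzain (1.5 nM final) was preincubated with compounds for 15 min at room temperature in 100 mM sodium acetate pH 5.5, 5 mM DTT, 0.01% Triton X-100. Reaction started with 2 uM Z-FR-AMC; AMC fluorescence change over 60 s gave activity.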
Cruzain noTriton: inhibitors of Trypanosoma cruzi cruzain without detergent | P25779 | purified cruzain, Z-FR-AMC fluorescence, no detergent | Potency, µM, inactives show max response, negative = inhibition, most hits filed as inhibitors | actives 2.3% (n = 200,000) | AID 1476;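 note: plate controls were enzyme without inhibitor for no effect and buffer without enzyme for full effect; nearly all actives have a fitted effect of over 40% in size; top concentration of the series not given in the record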
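Detergent-free condition (0.00005% Triton X-100) in acetate buffer pH 5.5 with DTT. 1.5 nM enzyme and compound were pre-mixed 15 min, then 2 uM Z-FR-AMC substrate added; reaction progress from fluorescence change between first and third reads (60 s).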
StopGo reporter: lowers the luciferase signal of an FMDV 2A StopGo reporter. human cells with a luciferase reporter of 2A StopGo recoding; control for the full effect not named in the record. AID 1159524. actives 1.2% (n = 410,000). Potency, µM (series often up to 57.9 µM), for the others: top-dose signal change, negative = less light; active = well fitted falling curve with a large enough effect; inconclusive = small, poorly fitted or top-dose-only effect; inactive = no such curve, though single readings can be large or run the other way; tested in HEK293T cells; note: % is set by controls: 0 for no effect and ±100 for the full control effect; nearly all actives have a fitted effect of over 45% in size; luciferase light after 4 h
MARV entry inh: Marburg virus entry inhibition; Potency, µM (highest dose often 37.8 µM), inactives show at the highest dose activity change, negative = inhibition, actives largely listed as inhibitors; Marburg virus pseudotyped entry inhibition, cell reporter; control for the full effect not named in the record; about a third of the inactives were read at about 46 µM; actives 1.8% (n = 300,000); AID 540276; active = well fitted inhibition curve with a large enough effect; inconclusive = small, poorly fitted or top-dose-only effect, or effect the other way; inactive = flat fitted curve, though single readings scatter; tested in HEK293 cells; about a fifth of its hits are not listed in these tables; note: % is set by controls: 0 for no effect and ±100 for the full control effect; luciferase read-out
LASV entry inh: Lassa virus entry inhibition | Lassa virus pseudotype entry inhibition, cell reporter; control for the full effect not named in the record | Potency, µM (series often up to 37.9 µM), inactives show at the highest dose activity change, negative = inhibition, usual class: inhibitors | actives 1.2% (n = 300,000); active means well fitted inhibition curve with a large enough effect; inconclusive means small, poorly fitted or top-dose-only effect, or effect the other way; inactive means flat fitted curve, though single readings scatter; tested in HEK293 cells; note: % is set by controls: 0 for no effect and ±100 for the full control effect; nearly all actives have a fitted effect of over 50% in size; luciferase read-out
* = called active by the depositor; ? = inconclusive; nt = no result given; & = joins results of further samples; [ ] = another dose, or the depositor's remark. Unless noted, calls come from the whole dose curve; as a rule, active = well fitted curve in the direction sought with a large enough effect; inconclusive = small, poorly fitted or top-dose-only effect, or another doubt; inactive = no such curve, though single readings can be large; an effect the other way counts as inactive or inconclusive. Potency is the fitted concentration of half-maximal effect. Not all compounds are listed. The share of hits here may be higher or lower than overall.

1: C#C[C@@]1(O)CC[C@@H]2[C@@H]3CCC4=CC(=O)CC[C@@H]4[C@H]3CC[C@]21CC
2: C[C@@H](C(=O)O)c1ccc(C(=O)c2cccs2)cc1
3: CN1CCO[C@H](c2ccccc2)c2ccccc2C1
4: CN[C@H]1[C@@H](O)[C@@H](NC)[C@@H]2O[C@@]3(O)C(=O)C[C@@H](C)O[C@H]3O[C@H]2[C@H]1O
5: CCCc1nc(C(C)(C)O)c(C(=O)O)n1Cc1ccc(-c2ccccc2-c2nn[nH]n2)cc1
6: N#Cc1ccc(C(c2ccc(C#N)cc2)n2cncn2)cc1
7: COc1cc2ncn(-c3cc(OCc4ccccc4C(F)(F)F)c(C(N)=O)s3)c2cc1OC
8: CN=C(NC#N)Nc1ccc(C2=NNC(=O)C[C@@H]2C)cc1
screen / no.,1,2,3,4,5,6,7,8
SARS PLP yeast,nt,nt,nt,nt,5%,-8%,nt,nt
RE007 growth inh,nt,nt,nt,nt,nt,nt,nt,nt
Cruzain Triton,-3.9%,-1.8%,1.6%,3.3%,nt,0.2%,nt,1.8%
Cruzain noTriton,1%,6%,-13%,-3%,nt,-7%,nt,3%
StopGo reporter,nt,nt,nt,nt,nt,nt,nt,nt
MARV entry inh,nt,nt,nt,nt,nt,nt,nt,23%&23%
LASV entry inh,nt,nt,nt,nt,nt,nt,?,nt

9: OC[C@@H](O)CN1CCN(c2ccccc2)CC1
10: C[C@H](N[C@@H](C)COc1ccccc1)[C@H](O)c1ccc(O)cc1
11: C=CCn1c(=O)n([C@@H]2O[C@H](CO)[C@@H](O)[C@H]2O)c2nc(N)[nH]c(=O)c21
12: NC(CC(=O)Nc1ccc(Oc2cc(F)c(F)cc2Br)cc1)C(=O)O (configuration not stated)
13: CCCN1CCCC(c2cccc(S(C)(=O)=O)c2)C1 (configuration not stated)
14: CCCCCCCCCCCCCCC[C@H](O)[C@@H](N)CO
15: COc1cc(N)c(Cl)cc1C(=O)N[C@H]1CCN(CCCOc2ccc(F)cc2)C[C@@H]1OC
16: COc1nccc(-c2c(-c3ccc(F)cc3)ncn2C2CCC(O)CC2)n1 (configuration not stated)
screen / no.,9,10,11,12,13,14,15,16
SARS PLP yeast,nt,nt,nt,nt,nt,nt,nt,nt
RE007 growth inh,nt,nt,nt,nt,nt,nt,nt,nt
Cruzain Triton,-2.0%,4.6%,nt,nt,nt,2.9%,-3.4%,0.8%
Cruzain noTriton,-3%,-1%,nt,nt,nt,2%,29%,16%
StopGo reporter,nt,nt,-5%,-10%,-20%,-15%[6.7 µM],?,-20%
MARV entry inh,15%,-1%,nt,nt,nt,nt,nt,nt
LASV entry inh,nt,nt,nt,nt,nt,nt,nt,nt

17: CC1CC2C3CCC4=CC(=O)C=C[C@]4(C)[C@@]3(Cl)C(O)C[C@]2(C)C1(OC(=O)c1ccco1)C(=O)CCl (some centres not stated)
18: C=C1c2cccc(O)c2C(O)=C2C(=O)[C@]3(O)C(O)=C(C(N)=O)C(=O)C(N(C)C)C3C(O)C12 (some centres not stated)
19: CCOC(N)=O
20: CCCCC(=O)O[C@@]1(C(=O)CO)C(C)CC2C3CCC4=CC(=O)C=C[C@@]4(C)[C@]3(F)C(O)C[C@]21C (some centres not stated)
21: CNC1C(O)C2OC3OC(C)CC(=O)[C@@]3(O)O[C@H]2[C@H](NC)C1O (some centres not stated)
22: CC[C@H](NC(C)C)[C@H](O)c1ccc(O)c2[nH]c(=O)ccc12
23: COc1c(O)cc2c(c1O)C1OC(CO)C(O)[C@H](O)[C@H]1OC2=O (some centres not stated)
24: NC1CCN(c2nc3c(cc2F)c(=O)c(C(=O)O)cn3-c2ccc(F)cc2F)C1 (configuration not stated)
screen / no.,17,18,19,20,21,22,23,24
SARS PLP yeast,nt,nt,nt,nt,nt,nt,nt,nt
RE007 growth inh,nt,nt,nt,nt,nt,nt,nt,-4%
Cruzain Triton,1.8%,-21%,4.9%,-6.4%,3.0%,-2.1%,1.2%,nt
Cruzain noTriton,-8%,?,8%,?,-2%,10%,-6%,nt
StopGo reporter,4%,-8%,3%,6%,-12%,-6%,3%,-17%
MARV entry inh,nt,nt,nt,nt,nt,nt,nt,nt
LASV entry inh,nt,nt,nt,nt,nt,nt,nt,nt

Reprinted at random: 3 records from the list
11: C=CCn1c(=O)n([C@@H]2O[C@H](CO)[C@@H](O)[C@H]2O)c2nc(N)[nH]c(=O)c21
6: N#Cc1ccc(C(c2ccc(C#N)cc2)n2cncn2)cc1
18: C=C1c2cccc(O)c2C(O)=C2C(=O)[C@]3(O)C(O)=C(C(N)=O)C(=O)C(N(C)C)C3C(O)C12 (some centres not stated)
screen / no.,11,6,18
SARS PLP yeast,nt,-8%,nt
RE007 growth inh,nt,nt,nt
Cruzain Triton,nt,0.2%,-21%
Cruzain noTriton,nt,-7%,?
StopGo reporter,-5%,nt,-8%
MARV entry inh,nt,nt,nt
LASV entry inh,nt,nt,nt

Look-ups from the entries so far:
CCOC(N)=O in Cruzain noTriton is entered as 8%
CC1CC2C3CCC4=CC(=O)C=C[C@]4(C)[C@@]3(Cl)C(O)C[C@]2(C)C1(OC(=O)c1ccco1)C(=O)CCl (some centres not stated) in StopGo reporter is entered as 4%
COc1c(O)cc2c(c1O)C1OC(CO)C(O)[C@H](O)[C@H]1OC2=O (some centres not stated) in Cruzain noTriton is entered as -6%
CCCCC(=O)O[C@@]1(C(=O)CO)C(C)CC2C3CCC4=CC(=O)C=C[C@@]4(C)[C@]3(F)C(O)C[C@]21C (some centres not stated) in Cruzain Triton is entered as -6.4%

Continued:
25: CC12CCC(=O)C=C1CCC1C2CCC2(C)C1CCC2(O)C(=O)CO (configuration not stated)
26: CCOC(=O)[C@H](CCc1ccccc1)N[C@@H](C)C(=O)N1Cc2ccccc2C[C@H]1C(=O)O
27: Cc1nc2c(-c3ccccc3)c(C)[nH]n2c(=O)c1Cc1ccc(Br)cc1
28: COC(=O)C1=CO[C@@H](O[C@@H]2O[C@H](CO)[C@@H](O)[C@H](O)[C@H]2O)C2C1C[C@H](O)[C@@H]2C (some centres not stated)
29: CC(=O)Nc1ccc(CC(=O)O)cc1
30: CC1(C)O[C@H]2CC(=O)OC[C@@]23C1CC(=O)[C@]1(C)C3CC[C@@]2(C)[C@H](c3ccoc3)OC(=O)[C@H]3O[C@]321 (some centres not stated)
31: COc1cc(-c2oc3cc(O)cc(O)c3c(=O)c2O[C@@H]2O[C@H](COC3O[C@@H](C)[C@H](O)[C@@H](O)[C@H]3O)[C@@H](O)[C@H](O)[C@H]2O)ccc1O (some centres not stated)
32: COc1ccc(-c2cc(=O)c3c(O)cc(OC4OC(COC5OC(C)C(O)C(O)C5O)C(O)C(O)C4O)cc3o2)cc1O (configuration not stated)
33: COc1ccccc1N1CCN(CCCN=C2CC(=O)N(C)C(=O)N2C)CC1
34: C=CC[n+]1ccc(/C=C2\C=Cc3cc(C)ccc3N2CC)c2ccccc21
35: Cc1c(C(=O)O)c(O)cc2c1C(=O)c1c(O)c([C@@H]3O[C@H](CO)[C@@H](O)[C@H](O)[C@H]3O)c(O)c(O)c1C2=O
screen / no.,25,26,27,28,29,30,31,32,33,34,35
SARS PLP yeast,nt,nt,nt,3%,-2%,-4%,0%,0%,-7%,-39%,-4%
RE007 growth inh,-8%,16%,nt,16%,14%,13%,-10%,7%,-11%[18.4 µM],32µM*,?
Cruzain Triton,nt,nt,nt,nt,nt,nt,nt,nt,nt,nt,nt
Cruzain noTriton,nt,nt,nt,nt,nt,nt,nt,nt,nt,nt,nt
StopGo reporter,-22%,-25%&22%,?,-8%,-21%,-13%,3%,-17%,-15%,35µM*,0%
MARV entry inh,nt,nt,?,nt,nt,nt,nt,nt,nt,nt,nt
LASV entry inh,nt,nt,?,nt,nt,nt,nt,nt,nt,nt,nt
